PrP 5UTR inh: inhibition of PrP 5' UTR reporter expression. cell-based PrP 5' UTR mRNA reporter, plate reader. inhibition, % (no concentration beside the values). 340,000 compounds, 0.35% hits;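 active = every replicate at 50% or more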;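 note: 0 = median of the neutral control wells; tested in H4 reporter cells; numbers are from one replicate; inactives centre near -14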
ugtP null kill: compounds lethal to S. aureus RN4220 ugtP deletion mutant | OD600 growth, 16 h; some inactives read as strong as hits | growth inhibition, % (no concentration beside the values) | 330,000 compounds, 0.54% hits | AID 1259309;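 active = z-score under -3 and OD600 up to 0.15 on both plates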;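 note: plate controls were untreated wells for no effect and antibiotic for full effect; wells of about 80 µL received 100 nL stock; the first replicate is given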
Bead autofluor: compound fluorescence in toxin protease inhibitor counterscreen; compound autofluorescence counterscreen, microsphere flow cytometry; stronger effect = higher value; fluorescence intensity (concentration not given with the values); 360,000 compounds, 3.1% hits;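 active = at least 3 SD above the mean of all compounds, about 16000 in these data; inconclusive = too few beads counted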;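 note: 100 nL of 1 mM stock went into each well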
Mtb hypoxia rep: Mtb hypoxia fluorescent reporter inhibition; 300,000 compounds, 0.1% hits; M. tuberculosis hypoxia-regulated fluorescent reporter, fluorescence; fluorescence inhibition, % (concentration not given with the values);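 active = 35 to 45% if threefold the growth effect, above 45% if 1.5-fold the growth effect; inactive = the rest, general growth blockers included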;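 note: wells of about 50 µL received 100 nL stock; 0% = vehicle wells and 100% = reference inhibitor wells; whole bacteria with a GFP reporter of the hypoxia response; strong numbers were not always called active; many hits fall short of the cut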
BJeLR viability: kills HRASV12-expressing BJeLR cells; inhibition, % (no concentration beside the values); 300,000 compounds, 0.17% hits; BJeLR (HRASV12) viability, CellTiter-Glo ATP luminescence, 48 h; reference of the scale not given here; AID 1554;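 active = replicate mean above 50%; inconclusive = above 50% but judged a plate artefact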;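 note: 50 nL library stock added to about 25 µL; numbers are from one replicate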
Sa RN4220 lethal: kills Staphylococcus aureus RN4220; S. aureus RN4220 growth, OD600, 16 h; AID 1259311; 330,000 compounds, 0.33% hits; inhibition, % (no concentration beside the values);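 active = z-score of -3 or lower and OD600 up to 0.18 on both plates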;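 note: plate controls were untreated cells for no effect and reference antibiotic for full effect; stock transfer was 100 nL into about 80 µL; one replicate is shown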
Mtb hypoxia rep growth: further read-out of Mtb hypoxia rep, marked with its call; growth inhibition, %; measured here: M. tuberculosis growth (absorbance);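 0% = vehicle and 100% = reference antibiotic; read after six days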
* = called active by the depositor; ? = inconclusive; . = no result given.

SMILES	PrP 5UTR inh	ugtP null kill	Bead autofluor	Mtb hypoxia rep	Mtb hypoxia rep growth	BJeLR viability	Sa RN4220 lethal
Cc1ccc(N2C(=O)CN(Cc3cccs3)C2=S)cc1C	-21	5	4039	3	1	2	2.1
CC1CCCCN1C(=O)Nc1cccc(C(F)(F)F)c1 (configuration not stated)	-16	0	2380	6	16	0	2.3
O=S1(=O)C[C@@H]2N=C(N/N=C/c3ccccc3)S[C@@H]2C1	-17	.	6071	.	.	-4	.
CCCCNC(=S)NNC(=O)c1nn(C)c(C)c1Cl	-11	1	3696	1	4	10	-2.8
O=C(COC(=O)c1ccccc1O)Nc1cc(S(=O)(=O)N2CCCCCC2)ccc1Cl	-19	0	3492	4	4	.	1.9
C=CCNC(=O)c1onc(CSc2ccccc2C)c1C(=O)O	0	1	3746	3	0	-17	4.0
Cc1ccc(C(=O)Nc2nc(C)c(C(=O)N(C)C)s2)o1	-25	10	?	11	2	6	1.1
CCn1nc(C)c(NC(=O)/C=C/c2ccc(OC)c(COc3ccc(Cl)cc3Br)c2)c1C	-5	-4	?	1	-1	-16	8.4
Cc1cc(SCc2ccccc2Cl)nc(=O)[nH]1	3	3	5594	2	7	-1	2.6
O=C(O)Cn1cnc2ccccc2c1=O	-44	-1	6268	14	3	-11	4.9
Cc1ccc(OCC(=O)NCCN2CCN(C(=O)COc3ccc(C)cc3)CC2)cc1	-15	6	?	9	8	-11	8.0
Cc1ccc(NC(=O)CSCC(=O)NC2CCCCC2)cc1	-25	3	2384	9	6	-1	3.4
CCN(CC)CC(=O)NN(Cc1ccccc1)c1ccccc1	-34	4	4132	15	10	1	4.6
C(=Nn1cnc2ccccc21)c1cccnc1	.	3	.	8	1	.	4.6
CCCCn1c(O)c(/C=C/C=Nc2ccccc2)c(=O)[nH]c1=O	-16	7	2751	1	9	4	2.9
c1ccc(Oc2nc(Oc3ccccc3)nc(N3CCOCC3)n2)cc1	-16	-1	3073	.	.	10	4.9
COc1ccc2[nH]c(C)c(CCN(Cc3cccs3)C(=S)Nc3ccc(F)cc3)c2c1	-15	14	6242	1	4	-2	-1.4
COc1ccc(Cc2nc3ccc(C(=O)N(C)CCCN4CCOCC4)cc3o2)cc1	-1	2	5492	7	9	4	2.3
COc1ccc(OCc2cc(C(=O)N3CCN(CC(=O)N(C)C)CC3)no2)c(Cl)c1	-4	-2	4389	3	-2	7	-1.5
Cc1ccc(-c2n[nH]c3c2C(c2cccc(O)c2)N(c2ccc(C(=O)O)cc2)C3=O)cc1 (configuration not stated)	-17	2	4694	13	-1	5	0.8

Profiles, looked up by structure.
`c1ccc(Oc2nc(Oc3ccccc3)nc(N3CCOCC3)n2)cc1` is listed as PrP 5UTR inh = -16; ugtP null kill = -1; Bead autofluor = 3073; Mtb hypoxia rep = .; Mtb hypoxia rep growth = .; BJeLR viability = 10; Sa RN4220 lethal = 4.9
`CC1CCCCN1C(=O)Nc1cccc(C(F)(F)F)c1` (configuration not stated) is listed as PrP 5UTR inh = -16; ugtP null kill = 0; Bead autofluor = 2380; Mtb hypoxia rep = 6; Mtb hypoxia rep growth = 16; BJeLR viability = 0; Sa RN4220 lethal = 2.3

Further entries follow.
SMILES	PrP 5UTR inh	ugtP null kill	Bead autofluor	Mtb hypoxia rep	Mtb hypoxia rep growth	BJeLR viability	Sa RN4220 lethal
O=C(Nc1nccs1)C1CCCN1S(=O)(=O)c1cccc2cccnc12 (configuration not stated)	-6	-10	4997	.	.	0	-0.3
CCN(CC)c1ccc(C=NNc2cccc(C)c2)c(O)c1	.	-1	.	-7	-5	.	5.5
COc1ccccc1NC(=O)Cn1cnc2c(oc3ccccc32)c1=O	-12	13	5033	7	9	-5	3.6
CN1CCN(C2CCCCC2NS(=O)(=O)c2ccc(Cl)cc2)CC1 (configuration not stated)	-40	-2	5440	10	0	-8	1.4
CC(C)CC(=O)NC1(C(F)(F)F)C(=O)N(CC(C)C)C2=C1C(=O)CC(C)(C)C2 (configuration not stated)	-29	2	2469	3	7	4	0.4
CC(=O)Nc1ccc(NC(=O)C2C3C=CC(C3)C2C(=O)O)cc1 (configuration not stated)	-35	12	3975	11	-5	-1	4.3
Cc1ccc2c(c1)nnn2C1CCN(CC(=O)c2ccc(Cl)cc2)CC1	-3	-6	4387	4	4	-8	0.5
O=C(NCCN1CCN(c2ccccc2)CC1)c1ccccc1F	-10	11	4294	-3	4	-1	7.0
Cc1ccc(CNC(=O)Cn2cnc3c(NCc4ccccc4)ncnc32)o1	-27	4	4452	4	7	.	-0.6
Cc1ccsc1C(=O)NNC(=O)c1cccc(S(=O)(=O)N2CCCC2)c1	-19	5	7973	6	-4	.	7.0
Cc1csc(NC(=O)NCC2CCCC(CNC(=O)Nc3nc(C)cs3)C2)n1 (configuration not stated)	-18	0	3828	-6	8	1	1.1
O=C(CCN1C(=O)c2ccccc2C1=O)C1=NN[C@@H]2C(=O)N(c3ccc(F)cc3)C(=O)[C@H]12	-2	.	2585	.	.	-3	.
NC(=O)Cn1cc(C(=O)c2cccs2)c2ccccc21	-7	7	3344	8	12	7	4.5
O=C(O)C1CCCCN1C(=O)c1ccc(S(=O)(=O)N2CCCCCC2)cc1 (configuration not stated)	0	-3	3727	-9	7	.	-2.6
NC(=O)Cn1c(=O)n(CCC(=O)NCCSCc2ccccc2)c(=O)c2ccccc21	-22	4	4216	-3	13	-3	3.4
Cc1cc(C)cc(C(=O)NC2CC(C)(C)NC(C)(C)C2)c1	-6	5	3851	4	10	6	1.4
COc1cc(/C(C)=N\NC(=O)CSc2nc3ccccc3n2C)ccc1O	-23	.	5246	.	.	-7	.
O=C(C=Cc1ccccc1)N1CCCCC1	-56	3	3677	.	.	.	2.3
Cc1cccn2c(=O)c(/C=N/O)c(NCc3ccccc3)nc12	-19	.	6456	.	.	4	.
COC(=O)CC1COc2ccccc2N1S(=O)(=O)c1ccc(OC)cc1 (configuration not stated)	-26	12	3488	13	11	9	4.1
COc1ccc(S(=O)(=O)N(C(=O)c2ccncc2)c2ccc(OC(=O)c3ccncc3)cc2)cc1	-23	0	2686	4	9	4	3.9
CCn1cc(C(=O)NCc2cccnc2)c(=O)c2cc(F)c(N3CCN(C(=O)c4ccco4)CC3)cc21	0	100*	2495	.	.	0	96*
COc1cc(/C=C2\N=C(c3ccccc3)NNC2=O)cc(OC)c1OC	-7	-3	.	-15	-2	-7	1.1
Cc1cc(N2C(=O)C3CC=CCC3C2=O)cc(C)c1Br (configuration not stated)	-11	-3	.	6	5	-3	-3.6
Cc1c(OC(C)C(=O)NCC2CCC(C(=O)O)CC2)ccc2c(-c3ccccc3)cc(=O)oc12 (configuration not stated)	-19	3	5875	.	.	-8	6.6
Cc1ccc(C2(c3ccc(C)cc3)NC(=O)N(Cc3c(C)noc3C)C2=O)cc1	-7	0	5045	.	.	-1	-2.6
CS(=O)(=O)N(CC(=O)NCc1ccco1)c1cc(C(F)(F)F)ccc1Cl	-17	2	11658	5	3	0	2.4
CCOc1cccc(C=NNC(=O)C2CCCC2)c1O	.	2	.	9	11	.	1.5
O=C(CN(Cc1ccccc1)S(=O)(=O)c1ccccc1)N1CCOCC1	-20	5	9057	-1	5	1	3.1
COC(=O)c1sccc1NC(=O)CCC1CCCC1	-16	23	2977	.	.	7	7.3
C=CCN(c1ccccc1)S(=O)(=O)c1cccc(C(=O)Nc2cccc(C)n2)c1	-25	-4	6735	-1	-2	-4	7.8
COc1ccc(Br)cc1C(=O)NC(=S)Nc1ccc2[nH]c(=O)[nH]c2c1	-12	-7	5745	0	-3	9	11
C/C(=N/Nc1ncc(C(F)(F)F)cc1Cl)c1ccncc1	-24	.	5224	.	.	-10	.
CN(C)S(=O)(=O)c1ccc(C(=O)Nc2ccc3nc(N4CCOCC4)sc3c2)cc1	10	2	4224	1	0	.	1.0
Cc1cccc2nc(CSc3nncn3-c3ccccc3)cn12	-7	3	3016	15	11	0	4.8
COc1cc(NC(=O)Cn2cnc3c(SC)nc(N)nc32)cc(OC)c1OC	35	-3	3810	-9	-1	.	1.8
COc1ccc(NC(=O)C2CCN(c3nc(C)nc4c3CCC4)CC2)cc1	-31	7	2869	8	14	8	4.8
Cc1ccc(N2CC(C(=O)NC(C)CCc3ccccc3)CC2=O)cc1 (configuration not stated)	4	3	5860	-2	5	4	1.7
CCOC(=O)C1CCN(C(=O)COc2ccc(Br)cc2C)CC1	-33	0	4468	2	14	-25	0.7
CCC(C)[C@H](NC(=O)NCc1cccs1)C(=O)OC (some centres not stated)	-17	6	6906	9	18	-3	5.5
COc1ccc(CNC(=O)Cn2cnc3c(NCc4ccccc4)ncnc32)cc1	-28	1	4241	-2	3	.	0.6
O=C(O)COc1ccc(F)cc1Br	-15	6	4436	4	11	-11	3.2
O=C(NCC(c1ccco1)N1CCCC1)c1ccc(S(=O)(=O)Nc2ccccc2Cl)cc1 (configuration not stated)	.	-7	?	-2	-3	.	-2.2
CC(=O)N/N=C/c1ccccc1OCCOc1cccc(C)c1	-14	.	3821	.	.	-5	.
O=[N+]([O-])c1ccc(N=Nc2ccc(O)cc2O)cc1	-36	98*	5147	.	.	28	99*
CCC(=O)NNc1ncnc2c1cnn2C	-53	5	4260	10	6	-11	2.7
Cc1c(NC(=O)COC(=O)c2ccc(O)cc2)c(=O)n(-c2ccccc2)n1C	1	-1	5745	3	5	.	-1.3
N=C(N)c1ccc(N)cc1	-11	-7	4756	4	1	.	5.1

Of the compounds above, these have an aryl methoxy group.
SMILES	PrP 5UTR inh	ugtP null kill	Bead autofluor	Mtb hypoxia rep	Mtb hypoxia rep growth	BJeLR viability	Sa RN4220 lethal
CCn1nc(C)c(NC(=O)/C=C/c2ccc(OC)c(COc3ccc(Cl)cc3Br)c2)c1C	-5	-4	?	1	-1	-16	8.4
COc1ccc2[nH]c(C)c(CCN(Cc3cccs3)C(=S)Nc3ccc(F)cc3)c2c1	-15	14	6242	1	4	-2	-1.4
COc1ccc(Cc2nc3ccc(C(=O)N(C)CCCN4CCOCC4)cc3o2)cc1	-1	2	5492	7	9	4	2.3
COc1ccc(OCc2cc(C(=O)N3CCN(CC(=O)N(C)C)CC3)no2)c(Cl)c1	-4	-2	4389	3	-2	7	-1.5
COc1ccccc1NC(=O)Cn1cnc2c(oc3ccccc32)c1=O	-12	13	5033	7	9	-5	3.6
COc1cc(/C(C)=N\NC(=O)CSc2nc3ccccc3n2C)ccc1O	-23	.	5246	.	.	-7	.
COC(=O)CC1COc2ccccc2N1S(=O)(=O)c1ccc(OC)cc1 (configuration not stated)	-26	12	3488	13	11	9	4.1
COc1ccc(S(=O)(=O)N(C(=O)c2ccncc2)c2ccc(OC(=O)c3ccncc3)cc2)cc1	-23	0	2686	4	9	4	3.9
COc1cc(/C=C2\N=C(c3ccccc3)NNC2=O)cc(OC)c1OC	-7	-3	.	-15	-2	-7	1.1
COc1ccc(Br)cc1C(=O)NC(=S)Nc1ccc2[nH]c(=O)[nH]c2c1	-12	-7	5745	0	-3	9	11
COc1cc(NC(=O)Cn2cnc3c(SC)nc(N)nc32)cc(OC)c1OC	35	-3	3810	-9	-1	.	1.8
COc1ccc(NC(=O)C2CCN(c3nc(C)nc4c3CCC4)CC2)cc1	-31	7	2869	8	14	8	4.8
COc1ccc(CNC(=O)Cn2cnc3c(NCc4ccccc4)ncnc32)cc1	-28	1	4241	-2	3	.	0.6

Bioassay records: PubChem BioAssay, several laboratories
